LANA-H2A inh: blockers of LANA interaction with H2A/H2B – biochemical, FP readout, HTS, primary screen | Protein LANA1 (Human herpesvirus 8 type P (isolate GK18)), Q9QR71 | cell-free LANA-H2A/H2B peptide, fluorescence polarization | inhibition, % (test concentration not listed) | 320,000 tested, 0.6% active; in the data active = inhibition mostly above about 10%, no sharp cut-off; inactive = mostly below about 6.7%;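 note: stock transfer was 7.5 nL into about 10 µL; 0% = median of vehicle wells and 100% = median of positive control wells; one replicate is shown; the record names a cut of 25% in any replicate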
Target sequence (Q9QR71 whole entry, looked up): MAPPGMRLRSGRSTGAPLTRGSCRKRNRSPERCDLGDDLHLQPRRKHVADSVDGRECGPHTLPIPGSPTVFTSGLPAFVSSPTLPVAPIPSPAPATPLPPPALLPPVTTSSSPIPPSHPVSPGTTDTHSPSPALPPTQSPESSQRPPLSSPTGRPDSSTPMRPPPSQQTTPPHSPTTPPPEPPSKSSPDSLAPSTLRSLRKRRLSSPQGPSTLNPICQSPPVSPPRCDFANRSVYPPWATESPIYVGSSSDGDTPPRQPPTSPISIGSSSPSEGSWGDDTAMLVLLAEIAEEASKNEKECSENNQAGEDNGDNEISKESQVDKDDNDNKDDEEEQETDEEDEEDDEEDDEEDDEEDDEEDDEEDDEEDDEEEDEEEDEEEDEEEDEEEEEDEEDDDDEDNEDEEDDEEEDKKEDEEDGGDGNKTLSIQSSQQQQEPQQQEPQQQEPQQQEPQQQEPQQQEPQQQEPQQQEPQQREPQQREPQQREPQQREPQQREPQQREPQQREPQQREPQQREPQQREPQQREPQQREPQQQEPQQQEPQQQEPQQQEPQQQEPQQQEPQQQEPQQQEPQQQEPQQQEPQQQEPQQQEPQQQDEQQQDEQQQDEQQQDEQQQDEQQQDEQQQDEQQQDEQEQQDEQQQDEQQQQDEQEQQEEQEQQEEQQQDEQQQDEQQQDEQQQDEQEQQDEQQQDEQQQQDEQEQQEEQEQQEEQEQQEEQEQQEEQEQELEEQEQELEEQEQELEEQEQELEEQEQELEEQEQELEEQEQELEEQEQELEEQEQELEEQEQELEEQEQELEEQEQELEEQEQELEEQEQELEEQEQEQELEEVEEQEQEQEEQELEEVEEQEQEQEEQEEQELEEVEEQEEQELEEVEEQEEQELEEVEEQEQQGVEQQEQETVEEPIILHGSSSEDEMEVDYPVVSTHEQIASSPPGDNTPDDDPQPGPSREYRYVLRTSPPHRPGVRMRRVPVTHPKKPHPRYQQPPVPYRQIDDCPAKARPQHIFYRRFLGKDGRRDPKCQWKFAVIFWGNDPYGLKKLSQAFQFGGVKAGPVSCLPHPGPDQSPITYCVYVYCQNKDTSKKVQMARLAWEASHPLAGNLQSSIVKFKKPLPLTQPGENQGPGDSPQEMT
Beta apoptosis: inhibitors of cytokine-induced beta cell apoptosis, primary screen, luminescence. INS-1E cytokine-induced death, ATP luminescence, 48 h; percent of positive-control rescue, neutral wells zero. protection from apoptosis, % (concentration not given with the values). 300,000 tested, 0.8% active. AID 435005, 2010;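 active = all replicates at 75% or more, or half of them and the mean; inconclusive = half reach 75% but not the mean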;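 note: 0% = cytokine-treated negative control wells and 100% = positive control rescue; higher means more ATP so stronger rescue from cytokine killing; wells of about 40 µL received 100 nL stock; the first replicate is given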
Bfl-1 A1 inh: caspase 3/7 activation in MEF A1-2A-BIM cells, primary screen, A1 inhibitor project, cell-based, luminescence, HTS | caspase activation, % (test concentration not listed) | 330,000 tested, 0.066% active | Caspase-Glo 3/7 luminescence, 3 h; percent of clofoctol response, vehicle zero;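 active = over half of replicate activation scores above 10%, or exactly half above 10 with the replicate mean above 10; inconclusive = replicate mean below 10 yet half the replicates above 10; inactive = over half of replicates below 10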;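 note: wells of about 30 µL received 50 nL stock; many hits fall short of the cut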
RanGTP-Imp inh: inhibitors of RanGTP-importin-beta interaction, primary screen, biochemical, FRET, CFP-Ran, YFP-importin-beta, homogeneous. Ran GTPase (GTP-bound) - importin-beta complex. cell-free CFP-Ran/YFP-importin-beta FRET ratio. inhibition, % (test concentration not listed). 300,000 tested, 1.1% active. AID 2216, 2009;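 active = most replicates above 15%; inconclusive = exactly half above 15%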;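 note: 0% = DMSO wells and 100% = Ran loaded with GDP instead of GTP; wells of about 40 µL received 100 nL stock; the first replicate is given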
T cruzi inh: inhibitors of intracellular T. cruzi growth, primary screen, luminescence, NIH3T3 host cells. T. cruzi beta-gal in NIH3T3, 90 h. inhibition, % (test concentration not listed). 300,000 tested, 1.4% active;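 active = mean inhibition across valid replicates above about 55%, limit read from the data; inconclusive = mean below that limit but half or more replicates reach it; inactive = mean below it, under half of replicates reach it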;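 note: signal also drops with host cell toxicity which is not excluded here; 0% = plate median of DMSO wells and 100% = zero luminescence signal; higher percent means less beta-gal luminescence so fewer parasites; stock transfer was 50 nL into about 50 µL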
B2AR ag: beta2AR agonists driving receptor internalization, primary screen, cell-based, FAP fluorogen, flow cytometry | Beta-2 adrenergic receptor (Homo sapiens), P07550 | Am2.2-beta2AR cells; reference of the scale not given here | response, % (no concentration beside the values) | 340,000 tested, 0.43% active | AID 504454, 2011;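 active = response above a set limit, near 3 SD of response in nonfluorescent compounds, cut at about 42% in these data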;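 note: stock transfer was 100 nL into about 11 µL; a reference agonist was the positive control; negative values mostly stem from fluorescent compounds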
UCH37 DUB inh: inhibitors of human UCH37 deubiquitinase, primary screen, biochemical, Ub-AMC cleavage, fluorescence; purified proteasome/UCH37; 330,000 tested, 0.33% active; AID 588478, 2011; Ubiquitin carboxyl-terminal hydrolase isozyme L5 (Homo sapiens), Q9Y5K5; inhibition, % (test concentration not listed);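 active = mean of two replicates above 20%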;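 note: 0% = compound-free wells with enzyme and 100% = wells lacking proteasome; stock transfer was 100 nL into about 20 µL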
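system = Proteasome-associated human UCH37 deubiquitinase | amount = 0.15 nM proteasome as dispensed | medium = pH 7.4 Tris-HCl (50 mM) with ovalbumin, ATP-MgCl2, DTT | incubation = 30 min preincubation with enzyme, 25 min cleavage at room temperature | detection = AMC fluorescence 355/460 nm | read-out basis = percent inhibition | controls = no-proteasome and no-compound wells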
Calb FLC: C. albicans growth inhibition with fluconazole, primary screen, CaCi-2 strain, Alamar Blue fluorescence. C. albicans CaCi-2 (fluconazole-resistant clinical isolate) + fluconazole, 48 h. growth inhibition, % (no concentration beside the values). 300,000 tested, 0.57% active. AID 1979, 2009;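 active = most replicates above 75%; inconclusive = exactly half above 75%; inactive = most below 75%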;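 note: all wells also contain fluconazole at 8 µg/ml as a sub-toxic cotreatment; 0% = median of DMSO wells and 100% = median of geldanamycin control wells; wells of about 8 µL received 7.5 nL stock; the first replicate is given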
Active calls of the source: *; ? = inconclusive; · = no result given. Rows are unselected; any-hit rate near 4.3%.

SMILES | LANA-H2A inh | Beta apoptosis | Bfl-1 A1 inh | RanGTP-Imp inh | T cruzi inh | B2AR ag | UCH37 DUB inh | Calb FLC
COc1ccc(N(C)S(=O)(=O)c2cccc(C(=O)Nc3nnc(C4CC4)s3)c2)cc1 | 2.9 | -2 | -0.5 | 3.3 | 8 | 2 | 2.3 | 12
Cc1ccc(Cl)cc1N1CCN(S(=O)(=O)c2ccc(-c3ccc(=O)[nH]n3)o2)CC1 | -2.8 | 8 | 1.2 | -1.4 | -6 | 4 | -5.5 | 4
COc1ccc(C2c3c(ncn(CCCN4CCOCC4)c3=N)Oc3ccc4ccccc4c32)cc1OC (stereo not given) | -0.1 | -2 | 0.0 | -2.9 | 31 | 2 | 4.6 | 12
CNS(=O)(=O)c1cnccc1N1CCN(c2cccc(C)c2)CC1 | -6.6 | -8 | 0.5 | 0.0 | 5 | -8 | 2.3 | -4
CC(C)(CO)CNC(=O)c1ccc2nc(Cc3cccc(Cl)c3)oc2c1 | -6.5 | -3 | 1.3 | -0.1 | 8 | -2 | 3.3 | 0
CCc1ccc(NC(=O)NC2CCCCCCC2)cc1 | -0.7 | 7 | 1.7 | · | · | 9 | 1.7 | -28
CC1CCCCN1C(=O)c1ccc(C(=O)Nc2ccc(F)cc2)cc1 (stereo not given) | 0.1 | 3 | 1.5 | · | · | -1 | 1.9 | ·
Cc1ccc(CCN2CC(C(=O)NCCN3CCCCCC3)CC2=O)cc1 (stereo not given) | 0.8 | -3 | -0.3 | 0.1 | ? | 2 | 1.7 | -2
COc1ccc(OC)c(-c2nnc3n2N=C(c2ccc(OC)c(OCC4CC4)c2)CS3)c1 | -5.2 | 35 | -0.5 | · | · | -1 | 1.6 | ·
COc1ccc(NS(=O)(=O)c2cc(NC(=O)C3CCCCC3)ccc2N2CCOCC2)cc1 | -0.8 | 16 | -0.5 | 3.4 | 9 | -5 | 1.4 | -4
COc1ccc(CCNC(=O)c2[nH]c(C)c(C(C)=O)c2C)cc1 | 5.7 | 3 | -1.1 | 2.7 | 0 | -4 | 3.6 | -10
O=C1N=c2ccccc2=C1c1sc(=S)n(-c2ccc(O)cc2)c1O | 3.3 | -5 | 0.6 | -1.9 | -5 | -3 | 5.3 | 7
CC(C)c1csc(CN2CCN(Cc3ccc(F)c(F)c3)C(CCO)C2)n1 (stereo not given) | -1.7 | -5 | 0.8 | -1.7 | 23 | -4 | -1.3 | -2
Cc1c(C(=O)/C=C/N(C)C)nnn1-c1ccc(Cl)cc1Cl | -0.1 | -6 | 0.4 | 2.3 | · | -11 | 15 | -1
O=C(COC(=O)C1COc2ccccc2O1)Nc1cccc(Cl)c1 (stereo not given) | -6.6 | 0 | -0.5 | · | · | -3 | 6.5 | ·
CCCn1c2ccccc2c2nnc(SC(CC)C(=O)Nc3sc4c(c3C#N)CCCC4)nc21 (stereo not given) | 1.0 | 17 | 0.3 | 0.2 | 10 | 1 | 2.7 | -7
COc1ccc(C(=O)NC2CCN(CC(=O)Nc3cccc(OC)c3)CC2)cc1 | 0.5 | 2 | ? | 4.1 | -9 | 5 | 3.2 | -2
COC(=O)c1ccc(CN2CCC(CO)(Cc3ccccc3Cl)CC2)cc1 | 0.8 | -5 | -0.6 | 5.0 | 9 | -3 | 0.8 | -25
CC1CCN(C(=O)COC(=O)Cn2cnc3ccccc32)CC1 | -1.2 | -5 | -1.5 | · | · | 1 | -0.2 | ·
O=C(C1CCCCC1)N1CCN(S(=O)(=O)c2ccc(Br)cc2)CC1 | 2.6 | 4 | 0.0 | 3.4 | 2 | -2 | 1.2 | -2
C/C(=N\NC(N)=O)c1ccc(Cl)s1 | 1.7 | -9 | 0.2 | 9.6 | -20 | 5 | · | 6
CCn1cc(CN2CCC(C(=O)Nc3ccc(Oc4ccccc4)nc3)CC2)cn1 | 5.5 | 2 | 0.5 | 6.4 | 6 | -3 | -0.5 | 22
O=c1c(F)cn(C2CCCO2)c(=O)n1Cc1ccccc1F (stereo not given) | -3.5 | -4 | 0.2 | -0.6 | -2 | -1 | 0.9 | 22
O=C(COC(=O)CSc1ccc([N+](=O)[O-])cc1)NCCC1=CCCCC1 | -4.4 | -2 | -0.1 | · | · | 3 | 13 | ·
O=C(NCc1ccccc1)NCc1cccs1 | 0.5 | -6 | -0.6 | -2.9 | -9 | 0 | 0.4 | -3
CCOC(=O)CCCNC(=O)CCNC(=O)c1ccc(OC)cc1 | 3.3 | 11 | 0.1 | 4.0 | 1 | 1 | 2.0 | -11
CCOc1cc(/C=C2/C(=N)N3OC(C)=CC3=NC2=O)ccc1OC(=O)c1ccco1 | -2.5 | -8 | -0.6 | 6.0 | -14 | 11 | 3.0 | -3
CCOC(=O)c1c(NC(=O)C2CCN(S(=O)(=O)c3ccc(Cl)cc3)CC2)sc2c1CCCC2 | -0.3 | 6 | 0.6 | 1.5 | ? | 3 | -13 | -4
Nc1nnc(C(=O)c2ccccc2N)s1 | -0.6 | 5 | -1.4 | ? | 5 | 3 | 7.8 | 17
COc1ccc(C2c3[nH]c4ccccc4c3C[C@H]3C(=O)N(c4ccccc4C(=O)N4CCC(C(=O)O)CC4)C(=O)N23)cc1 (stereo not given in full) | -2.7 | -11 | -0.6 | 6.3 | 1 | 9 | 4.4 | -6
Cc1ccc(C(=O)N(CC(C)C)c2c(N)n(Cc3ccccc3)c(=O)[nH]c2=O)o1 | -3.5 | -1 | -0.1 | 6.3 | -1 | 2 | -0.5 | -4
COc1cccc(NC(=O)CCN2CCN(c3ccccc3F)CC2)c1 | -0.4 | 4 | -0.8 | 0.4 | 1 | -2 | 0.9 | -1
COc1ccccc1C(C#N)N1N=C(C)CC1c1ccccc1 (stereo not given) | 0.3 | 4 | -0.5 | 0.8 | -14 | 8 | 1.6 | -12
Cc1nccn1Cc1cccc2ccccc12 | 0.1 | · | 0.5 | 2.1 | -44 | -7 | 2.3 | -28
COC(CNC(=O)c1c[nH]c2ccc(S(=O)(=O)N(C)c3ccc(F)cc3)cc2c1=O)OC | 0.4 | 0 | 0.5 | -1.2 | 6 | 21 | -5.3 | 36
COc1ccc(CCNc2cc(C)nc3c(-c4ccccc4)cnn23)cc1OC | 1.3 | · | -0.1 | 3.3 | 15 | 0 | -198 | 2
CN(C)S(=O)(=O)Oc1ccsc1C(=O)Nc1ccc(Cl)cc1 | 8.0 | -1 | 0.3 | ? | 1 | -2 | 4.6 | 18
N/C(=N\OC(=O)c1ccc2c(c1)OCO2)c1ccc(Cl)cc1 | 0.4 | 3 | 0.9 | 1.6 | 24 | -2 | 2.7 | 70
CCCSc1nnc(-c2cccc(S(=O)(=O)N(C)C)c2)n1-c1cc(OC)ccc1OC | -1.0 | 0 | 0.6 | -3.3 | 7 | 0 | 1.5 | -25
Cc1[nH][nH]c(=O)c1C(c1ccc(-c2ccc(F)cc2)o1)c1c(C)[nH][nH]c1=O | -3.5 | -9 | 0.5 | -2.1 | -19 | 2 | 22* | -25
Fc1ccc(NC(=S)N2CCn3cccc3C2c2cccnc2)cc1 (stereo not given) | -12 | -15 | 0.0 | 0.9 | 71* | 0 | 4.7 | -34
COC(=O)c1sccc1NC(=S)Nc1ccc(F)cc1F | 1.7 | 0 | 0.7 | -3.3 | -15 | 2 | 1.7 | -33
COc1ccc(-c2nc(C#N)c(NCc3ccccc3Cl)o2)cc1OC | -3.3 | 26 | -0.3 | -1.2 | 17 | 6 | -36 | -5
CCN1CC2CCCC3(C1)C(=O)NC1(CCCCC1)N=C23 (stereo not given) | -4.5 | -8 | · | -1.5 | -4 | 4 | -2.5 | -11
CC(=O)NCCc1ccc(S(=O)(=O)Nc2ccc3c(c2)OCCO3)cc1 | -1.4 | · | 0.4 | -3.6 | 0 | 0 | 2.4 | -4
CCOC(=O)N1CCN(CC(O)COCC2=CCC3CC2C3(C)C)CC1 (stereo not given) | · | -17 | 0.3 | -0.4 | 51 | -3 | 1.7 | -28
O=C(c1cc(Cl)ccc1Cl)N1CCN(Cc2ccccc2)CC1 | -3.0 | -3 | 0.0 | 4.9 | 0 | -8 | -0.5 | -10
Cc1ccc(C(=O)Nc2ccc(CC(=O)O)cc2)o1 | 2.7 | 5 | -1.3 | -3.7 | -11 | -3 | -0.8 | 12
O=C(O)Cc1ccc(NC(=O)c2cnccn2)cc1 | 0.2 | · | -1.8 | 7.7 | 5 | 4 | 2.8 | -4
Cc1cc(C)cc(-n2c(C)cc(/C=N/NC(=O)c3ccncc3)c2C)c1 | -3.3 | 1 | 0.6 | -1.3 | 3 | -4 | · | -10
Following part.
SMILES | LANA-H2A inh | Beta apoptosis | Bfl-1 A1 inh | RanGTP-Imp inh | T cruzi inh | B2AR ag | UCH37 DUB inh | Calb FLC
CCCCn1c(Cn2nc(C(=O)O)c3ccccc3c2=O)nc2cc(S(N)(=O)=O)ccc21 | 3.8 | -5 | 0.0 | 0.2 | -1 | 8 | 2.1 | -7
COc1ccc(N(CC(=O)Nc2cccc(SC)c2)S(C)(=O)=O)cc1 | 1.5 | -1 | -0.4 | -1.0 | -1 | -15 | -4.7 | -8
CCc1ccccc1NC(=O)CCN1C(=O)C2CC=CCC2C1=O (stereo not given) | 0.7 | · | 0.2 | -0.5 | -14 | -5 | 0.8 | -7
Cc1ccc(C)n1-c1ccc(C(=O)NN)cc1 | -0.1 | -3 | 0.4 | -0.5 | -3 | 4 | 0.9 | 4
COc1ccc(C(=O)N/C(=C\c2ccco2)C(=O)OCc2ccco2)cc1 | 6.7 | · | -0.1 | -0.8 | -12 | -1 | 7.1 | 0
Cc1cc(C)n(CCCNC(=O)C(C)(C)Oc2ccc(Cl)cc2)n1 | -0.4 | -1 | -0.3 | · | · | -4 | 1.3 | ·
COc1cc(/C=C(\C#N)c2nc3ccccc3[nH]2)ccc1Oc1ccc([N+](=O)[O-])cn1 | -4.3 | 21 | -1.1 | ? | 62* | 10 | -13 | 7
COc1ccc(C2=NO[C@H]3C[C@](C(=O)NC(C)C)(S(=O)(=O)c4ccccc4)C[C@@H]23)cc1 | -0.4 | -1 | -1.0 | 2.8 | 0 | -5 | 3.7 | 13
Cc1ccc(/C=C/C(=O)NCc2cccs2)c(C)c1 | 4.3 | 5 | -0.7 | 1.7 | 4 | 4 | 0.6 | -10
NC(=O)Cc1c[nH]c2cccc(O)c12 | -0.1 | · | 0.1 | -11 | 10 | -2 | 1.1 | 10
COc1ccc(C(=O)NNC(=O)c2ccncc2)cc1[N+](=O)[O-] | -0.5 | 0 | 1.5 | -2.2 | -2 | -5 | 2.8 | 2
CCCCSCCCNC(=O)Nc1ccc(C)c(C)c1 | -1.9 | -3 | 0.2 | -1.2 | -6 | -1 | 0.4 | 0

Screening results as filed in PubChem.
